Lassa entry inh: inhibitors of Lassa virus binding or cell entry; Lassa virus pseudotype entry inhibition, cell reporter; control for the full effect not named in the record; Potency, µM (titrated, usually from 37.9 µM), for inactives: top-dose activity change, negative = inhibition, most hits filed as inhibitors; actives 1.2% (n = 300,000); AID 540256; active means well fitted inhibition curve with a large enough effect; inconclusive means small, poorly fitted or top-dose-only effect, or effect the other way; inactive means flat fitted curve, though single readings scatter; tested in HEK293 cells; also: % is scaled to controls: 0 for no effect and ±100 for the full control effect; nearly all actives have a fitted effect of over 50% in size; luciferase read-out
StopGo reporter: FMDV 2A StopGo reporter, luciferase signal | AID 1159524 | Potency, µM (top dose mostly 57.9 µM), without a hit: top-dose signal change, negative = less light | human cells with a luciferase reporter of 2A StopGo recoding; control for the full effect not named in the record | actives 1.2% (n = 410,000); active = well fitted falling curve with a large enough effect; inconclusive = small, poorly fitted or top-dose-only effect; inactive = no such curve, though single readings can be large or run the other way; tested in HEK293T cells; also: % is scaled to controls: 0 for no effect and ±100 for the full control effect; nearly all actives have a fitted effect of over 45% in size; luciferase light after 4 h
Cruzain Triton: cruzain (T. cruzi) inhibition with detergent. P25779. purified cruzain, Z-FR-AMC fluorescence, 0.01% Triton. Potency, µM, for inactives: max response, negative = inhibition, hits mostly inhibitors. actives 0.43% (n = 200,000). AID 1478;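 also: plate controls were neutral wells for no effect and buffer without enzyme for full effect; nearly all actives have a fitted effect of over 40% in size; top concentration of the series not given in the record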
Target sequence (P25779 123-467 limits assumed): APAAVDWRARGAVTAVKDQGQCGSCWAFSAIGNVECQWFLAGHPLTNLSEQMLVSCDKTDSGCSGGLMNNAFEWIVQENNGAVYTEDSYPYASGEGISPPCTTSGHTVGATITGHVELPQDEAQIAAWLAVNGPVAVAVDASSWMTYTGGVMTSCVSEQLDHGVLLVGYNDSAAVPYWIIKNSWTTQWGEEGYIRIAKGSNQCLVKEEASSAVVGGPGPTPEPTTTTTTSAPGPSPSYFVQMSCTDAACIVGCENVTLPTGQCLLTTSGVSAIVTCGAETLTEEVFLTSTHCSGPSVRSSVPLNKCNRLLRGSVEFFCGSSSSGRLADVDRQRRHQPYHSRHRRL
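15 min RT preincubation of 1.5 nM cruzain with compound, then 2 uM Z-FR-AMC added; kinetic AMC fluorescence, 60 s delta. Triton X-100 0.01%, pH 5.5.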
RE007 growth inh: less growth of the S. pombe RE007 Vpr strain | S. pombe RE007 Vpr strain, BacTiter-Glo ATP luminescence, 24 h; control for the full effect not named in the record | Potency, µM (doses to about 92.2 µM), for the others: at the highest dose activity change, negative = less growth | actives 0.21% (n = 360,000); active = well fitted falling curve with a large enough effect; inconclusive = small, poorly fitted or top-dose-only effect; inactive = no such curve, though single readings can be large or run the other way;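 also: % is scaled to controls: 0 for no effect and ±100 for the full control effect; nearly all actives have a fitted effect of over 50% in size; the assay follows cell death caused by Vpr and the record does not say whether a fall means rescue or toxicity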
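Fission yeast strain RE007, carrying one chromosomally integrated HIV-1 vpr copy, was seeded at OD 0.01 in PMG+AL medium with 23 nL pinned compound. After 24 h at 30 °C and 99% humidity, viability was read by BacTiter-Glo luminescence.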
Cruzain inh noDet: blocks cruzain activity in detergent-free assay; P25779; purified cruzain, Z-FR-AMC fluorescence, no detergent; Potency, µM, for the others: max response, negative = inhibition, actives largely listed as inhibitors; actives 2.3% (n = 200,000); AID 1476;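 also: plate controls were enzyme without inhibitor for no effect and buffer without enzyme for full effect; nearly all actives have a fitted effect of over 40% in size; top concentration of the series not given in the record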
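Purified cruzain at 1.5 nM, pre-incubated 15 min with compound at room temperature in 100 mM sodium acetate pH 5.5, 5 mM DTT, 0.00005% Triton X-100. Reaction started with 2 uM Z-FR-AMC; AMC fluorescence increase over 60 s gives rate.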
NS1 function inh: blocks influenza NS1 protein function; S. cerevisiae slowed by influenza A NS1, growth recovery by OD600; Potency, µM (highest dose often 46.1 µM), inactives show top-dose activity, positive = more growth; actives 0.4% (n = 270,000); AID 2326; active means well fitted rising curve with a large enough effect; inconclusive means small, poorly fitted or top-dose-only effect; inactive means no such curve, though single readings can be large or run the other way; also: nearly all actives have a fitted effect of over 50% in size
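Recovery from NS1-induced slow growth read by OD600 in budding yeast switched to galactose assay medium (pH 6.0, -URA) at 1:100 dilution. Compound 23 nl per well; the matching strain lacking NS1 serves as control.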
MARV entry inh: inhibitors of Marburg virus binding or cell entry; Marburg virus pseudotyped entry inhibition, cell reporter; control for the full effect not named in the record; about a third of the inactives were read at about 46 µM; AID 540276; Potency, µM (titrated, usually from 37.8 µM), for the others: top-dose activity change, negative = inhibition, usual class: inhibitors; actives 1.8% (n = 300,000); active = well fitted inhibition curve with a large enough effect; inconclusive = small, poorly fitted or top-dose-only effect, or effect the other way; inactive = flat fitted curve, though single readings scatter; tested in HEK293 cells; about a fifth of its hits are not listed in these tables; also: % is scaled to controls: 0 for no effect and ±100 for the full control effect; luciferase read-out
SARS PLP yeast: blocks SARS-CoV papain-like protease in a yeast assay; S. cerevisiae expressing SARS-CoV PLpro, growth rescue; control for the full effect not named in the record; Potency, µM (series often up to 32.9 µM), for the others: at the highest dose activity, positive = growth rescue; actives 0.19% (n = 330,000); AID 485353; active means well fitted rising curve with a large enough effect; inconclusive means small, poorly fitted or top-dose-only effect; inactive means no such curve, though single readings can be large or run the other way; also: 0% is about no effect; nearly all actives have a fitted effect of over 55% in size; growth read by luminescence after 48 h
* = called active by the depositor; ? = inconclusive; nt = not tested or not shown; & = joins results of further samples; [ ] = dose if it differs, or a comment. Unless noted, calls follow the shape of the dose curve; as a rule, active = well fitted curve in the direction sought with a large enough effect; inconclusive = small, poorly fitted or top-dose-only effect, or another doubt; inactive = no such curve, though single readings can be large; an effect the other way counts as inactive or inconclusive. Potency is read from the fitted curve at half-maximal effect.

SMILES | Lassa entry inh | StopGo reporter | Cruzain Triton | RE007 growth inh | Cruzain inh noDet | NS1 function inh | MARV entry inh | SARS PLP yeast
COc1ccc(N2C(=O)CSC23C(=O)Nc2ccccc23)cc1 (stereo not given) | 6.6% | -10.7% | -4.3% | 8.7% | 7.2% | 9.2% | 26.4% | 17.5%
O=C(Cn1nnc2c(cnn2-c2ccccc2)c1=O)N1CCN(c2ccccc2F)CC1 | -16.0% | -7.5% | -1.6% | -16.8% | 0.3% | -32.1% | 10.4% | -1.8%
COc1ccc(/C=N/Nc2snc(SC)c2C#N)cc1OC | 6.31µM* | -2.5% | -3.4% | -24.8% | 6.7% | -10.6% | ? | -7.1%
CC1CCCCN1CC(=O)c1c(N)n(Cc2ccccc2)c(=O)n(C)c1=O (stereo not given) | 14.2% | -10.8% | nt | 2.1% | nt | nt | -26.5% | 0.6%
O=C(O)CCC(=O)Nc1ccc2c(c1)Cc1cc(NC(=O)CCC(=O)O)ccc1-2 | nt | -5.9% | nt | 51.7% | nt | 3.2% | nt | 0.4%
CCNS(=O)(=O)c1ccc(NC(=O)Cn2nc(C(F)(F)F)cc2C)cc1 | -0.7% | -6.3% | -0.1% | 3.8% | 3.5% | 0.4% | 12.5% | -0.1%
O=C(CSc1nnc(-c2ccncc2)n1-c1ccccc1)Nc1ccc(Br)cc1 | 22.0%[46.1 µM] | -2.1% | -0.1% | nt | -1.0% | nt | nt | nt
CCCN(CCC)S(=O)(=O)c1cc(CN2C(=O)c3cccnc3C2=O)ccc1OC | nt | 0.0% | nt | 2.6% | nt | 4.2% | nt | 1.1%
CCOC(=O)/C(C#N)=C/NC(=O)NC(C)(C)C | 15.1% | nt | 2.3% | -12.7% | -1.3% | 6.9% | 8.4% | 5.6%
COC(=O)CN1C(=O)[C@H]2[C@@H](c3ccc(C)o3)N3C(=O)CN(Cc4ccc(-c5ccccc5)cc4)C(=O)[C@@]3(C)[C@H]2C1=O | nt | -17.2% | nt | -4.7% | nt | -2.6% | nt | -4.9%

Brought forward from above: two compounds; new compounds follow.
SMILES | Lassa entry inh | StopGo reporter | Cruzain Triton | RE007 growth inh | Cruzain inh noDet | NS1 function inh | MARV entry inh | SARS PLP yeast
CCOC(=O)/C(C#N)=C/NC(=O)NC(C)(C)C | 15.1% | nt | 2.3% | -12.7% | -1.3% | 6.9% | 8.4% | 5.6%
COC(=O)CN1C(=O)[C@H]2[C@@H](c3ccc(C)o3)N3C(=O)CN(Cc4ccc(-c5ccccc5)cc4)C(=O)[C@@]3(C)[C@H]2C1=O | nt | -17.2% | nt | -4.7% | nt | -2.6% | nt | -4.9%
COc1ccc(-c2cc(C(=O)OCC(=O)NC(C)C)c3ccccc3n2)cc1 | ? | -6.8% | nt | 8.7% | nt | nt | ? | 0.8%
COc1ccc(CNC(=O)C2CCN(S(=O)(=O)c3cccc4nonc34)CC2)cc1OC | -4.2%[46.1 µM] | -17.5% | 1.3% | nt | 13.9% | nt | nt | nt
COCCn1c(SCc2c(F)cccc2Cl)nc2c1c(=O)[nH]c(=O)n2C | ? | -0.6% | 0.4% | -0.8% | -4.5% | -15.3% | 1.4% | -1.6%
CC(C)C(=O)N1CCN(S(=O)(=O)c2ccc3ccccc3c2)CC1 | ? | -15.1% | nt | -5.1% | nt | -4.8% | -21.5%[46.1 µM] | 1.5%
O=c1c2cc(N3CCOCC3)ccc2[nH]c(=S)n1Cc1cccc(Cl)c1 | ? | -9.1% | -1.6% | 16.4% | -1.5% | 10.7% | ? | 5.4%
CC1CC(C)(C)CC2(C1)NC(=O)N(CC(=O)OCc1ccc(Br)cc1)C2=O (stereo not given) | -10.0% | -23.3% | nt | 11.2% | nt | nt | -17.2% | -5.3%
CCOC(=O)C1=C(c2ccccc2)NC(=O)N(C(C)=O)C1c1cccc([N+](=O)[O-])c1 (stereo not given) | ? | 23.2% | nt | 4.5% | nt | -9.6% | ? | -1.5%
Cc1cc(C)c(S(=O)(=O)N2CCCCC2C(=O)O)c(C)c1 (stereo not given) | nt | -2.6% | nt | 0.4% | nt | 0.4% | nt | -0.2%
Cc1ccc(C)n1-c1ccc(N2CCOCC2)c(Br)c1 | -29.5% | -19.8% | -2.0% | 3.1% | -7.1% | 7.0% | -8.4% | ?
COc1ccc(NC(=O)CN(Cc2ccccc2)Cc2ccccc2)cc1S(N)(=O)=O | -0.2% | 46.0%[activator] | -2.2% | 11.0% | ? | -23.6% | -8.1% | -9.1%
O=C(Cn1c(=O)n(Cc2ccc(C(=O)NCc3ccc4c(c3)OCO4)cc2)c(=O)c2ccccc21)Nc1ccccc1F | 19.3%[46.1 µM] | -10.6% | -1.9% | nt | 12.6µM* | nt | -25.3%[46.1 µM] | nt
COC(=O)c1ccc(NC(=O)CSc2nnc(-c3ccncc3)n2C)cc1 | 12.9% | 17.1% | 1.2% | 14.1% | 1.9% | -11.3% | ? | -14.7%
CN1CCN(S(=O)(=O)c2ccc(NC(=O)c3cccs3)cc2)CC1 | -3.5% | -5.8% | 2.0% | 30.4% | -2.4% | -4.7% | 0.4% | nt
CCN(CC)CC#CCC(O)(c1ccccc1)C1CCCC1 (stereo not given) | ? | nt | 1.0% | -7.1% | -1.0% | -6.5% | ? | -11.6%
CCn1cc(CN2CCc3c([nH]c4ccccc34)C2c2cccc(O)c2)c(C)n1 (stereo not given) | ? | -20.7% | nt | 1.0% | nt | -5.7% | ? | 0.0%
COc1ccccc1N1CCN(C(=O)CN(CCc2ccccc2)S(C)(=O)=O)CC1 | ? | nt | 0.4% | -4.7% | ? | -10.0% | ? | 5.1%
Cc1ccc2nc(Nc3ccccc3)cc(C)c2c1 | nt | 54.1%[activator] | nt | ? | nt | -74.9% | nt | -5.6%
CCCOC(=O)c1c(NC(=O)CCCn2nc([N+](=O)[O-])cc2C)sc(C(=O)OC)c1C | 16.1% | -5.3% | -3.1% | -8.0% | ? | 5.0% | ? | -2.2%
CCOc1ccccc1CNC(=O)C1CCCN(c2nnc(C)c3c(C)n(-c4ccccc4)nc23)C1 (stereo not given) | 1.3%[46.1 µM] | 4.8%&5.2% | -8.4% | -14.1% | -1.9% | -6.9% | nt | 19.3%
O=C1OCCC1NC1=NCCC1 (stereo not given) | -2.6% | 15.1% | -1.7% | -10.7% | 2.5% | 8.3% | 1.8% | 13.8%
O=C1NC(=O)N(Cc2cccs2)C(=O)/C1=C/c1ccc(N2CCOCC2)cc1 | -4.3% | ? | nt | -1.9% | nt | nt | -10.0% | 0.3%
COc1ccccc1NC(=O)c1cc2c(CO)cnc(C)c2oc1=Nc1cc(OC)c(OC)c(OC)c1 | ? | -9.1% | nt | 2.7% | nt | -0.3% | 3.4% | 1.5%
CSc1ccc(C(=O)C2CCCN(Cc3cccnc3)C2)cc1 (stereo not given) | -1.3% | ? | nt | -6.4% | nt | -2.9% | -25.4%[46.1 µM] | -0.1%
Cc1nc2c3cc(F)ccc3n(CCN3CCCCC3)c2s1 | -28.8%[46.1 µM] | -22.1% | nt | -0.8% | nt | nt | 7.08µM* | -5.3%
O=C(NCC(c1ccc(F)cc1)N1CCOCC1)c1ccco1 (stereo not given) | 7.4% | -1.0% | nt | -0.1% | nt | nt | 6.0% | 1.5%
O=S(c1ccccc1O)S(=O)c1ccccc1O (stereo not given) | -24.1%[46.1 µM] | 2.1% | nt | 35.5µM* | nt | nt | 2.2%[46.1 µM] | nt
O=C(O)C1(P(=O)(c2ccccc2)c2ccccc2)CCCC1 | nt | -8.5% | nt | 2.9% | nt | -0.3% | nt | 5.8%
Cc1ccc(Cl)c(OCC(=O)Nc2ccccc2N2CCCCC2)c1 | -9.1% | ? | nt | 0.2% | nt | nt | ? | nt
Cc1oc2cc3oc(=O)c(CC(=O)NCC(=O)N[C@@H](C(=O)O)c4ccccc4)c(C)c3cc2c1C | nt | -9.8% | nt | 8.2% | nt | ? | nt | -1.3%
CC1(C)Cc2c(cnn2-c2ccc(F)cc2)C(NC(=O)c2ccc(=O)oc2)C1 (stereo not given) | 5.6% | 15.2% | nt | 6.0% | nt | 14.4% | ? | 2.9%
CC(C)OCC(O)CN (stereo not given) | 13.5% | 21.5% | -0.5% | 33.5% | 2.8% | 18.6% | -15.8% | -6.5%
Cc1ccc(C)c(N2CCN(c3ccc(NC(=O)c4cccs4)cc3C(=O)O)CC2)c1 | 5.3%[46.1 µM] | -13.5% | 1.0% | nt | -9.3% | nt | nt | nt
COc1ccc(-c2noc(CN(C)C3CCOCC3)n2)cc1 | -0.7%[46.1 µM] | 13.9% | nt | 8.9% | nt | 3.5% | 20.9%[46.1 µM] | -0.2%
Oc1ccc(Nc2nc(N3CCCC3)c3ccccc3n2)cc1 | ? | -28.0% | -17.9% | 6.4% | -16.7% | -9.1% | 11.2µM* | -7.5%
CSCCC(NC(=O)c1cccc(C)c1)C(=O)O (stereo not given) | -2.7% | 3.0% | nt | 8.7% | nt | nt | -13.5% | 4.5%
O=C(Nc1ccc2c(c1)CCCN2C(=O)c1ccccc1)c1ccccc1Br | nt | ? | nt | 1.2% | nt | -13.1% | nt | -0.3%
Cc1cc(C(C)(C)C)ccc1NC(=O)CC(C)(C)CC(=O)O | 17.5% | 35.2%[activator] | nt | -15.4% | nt | 7.0% | ? | 0.8%
Cc1ccc(NC(=O)COC(=O)C2(c3ccc(Cl)cc3)CCCC2)cc1 | ? | ? | -6.5% | 0.8% | 2.8% | -3.7% | ? | 2.7%
CCOC(=O)c1cnn(CCOC(=O)Cc2cccs2)c1NC(=O)Cc1cccs1 | 9.4% | -13.2% | 1.0% | 0.0% | 4.5% | -2.7% | 2.4% | 3.7%
COc1ccc(C(=O)O/N=C/c2c(C(F)(F)F)nn(C)c2SCc2ccccc2Cl)cc1 | ? | -18.7% | -0.3% | 9.7% | -28.2% | -2.6% | ? | -9.8%
CCCCC1(C)OC(=O)C(=Cc2ccc(SC)cc2)C(=O)O1 (stereo not given) | -9.6% | -0.6% | nt | -1.6% | nt | nt | 1.1%[46.1 µM] | -3.7%
O=C(Nc1ccc(F)cc1F)C1CCN(c2ncnc3c2sc2cccc(F)c23)CC1 | nt | 0.0% | nt | 13.2% | nt | -23.4% | nt | -15.8%

From PubChem
